Source: PubChem BioAssay
D2 potentiator – Beta-Arrestin HTS for Positive Allosteric Modulators of the Human D2 Dopamine Receptor: Potentiators. DiscoveRx D2 beta-arrestin cells, luminescence, 90 min; 100% = 57 uM dopamine signal. potentiation, % (no concentration beside the values). 0.23% of 360,000 active. AID 624464, 2012; active = potentiation of 50% or more; inconclusive = 30% to 50%; inactive = 30% or less;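 note: compound concentration not given in the record; tested on top of an EC20 dose of dopamine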
Target sequence (P14416 whole entry, looked up): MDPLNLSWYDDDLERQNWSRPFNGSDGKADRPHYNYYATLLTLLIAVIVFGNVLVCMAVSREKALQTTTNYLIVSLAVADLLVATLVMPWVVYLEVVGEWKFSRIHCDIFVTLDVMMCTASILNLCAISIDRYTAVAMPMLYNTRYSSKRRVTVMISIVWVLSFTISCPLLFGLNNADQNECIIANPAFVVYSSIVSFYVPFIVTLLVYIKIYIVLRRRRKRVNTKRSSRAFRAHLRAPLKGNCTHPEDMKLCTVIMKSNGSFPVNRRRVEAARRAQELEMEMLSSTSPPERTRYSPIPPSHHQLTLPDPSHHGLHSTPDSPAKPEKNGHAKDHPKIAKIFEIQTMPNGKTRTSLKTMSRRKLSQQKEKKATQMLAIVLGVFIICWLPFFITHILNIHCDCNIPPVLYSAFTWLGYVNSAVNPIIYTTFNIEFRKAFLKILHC
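D2 cells co-treated with compound plus 50 nM dopamine (EC20) for 90 min at 37 deg C to detect potentiation. Beta-arrestin recruitment was read as enzyme-fragment luminescence after 1 h at ambient temperature. Full response was set by 57 uM dopamine.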
Six1-Eya2 inh – qHTS Assay for Inhibitors of the Six1/Eya2 Interaction. Homeobox protein SIX1 (Homo sapiens) + Protein phosphatase EYA2 (Homo sapiens), …. AlphaScreen GST-Six1/His-Eya2 binding, biochemical; hits give low values; control for the full effect not named in the record. activity change, % (no concentration beside the values). 0.56% of 360,000 active. AID 651725, 2012; in the data active = activity change below about -65%; inconclusive = about -30% to -65%; inactive = above about -30%; note: % is set by controls: 0 for no effect and ±100 for the full control effect; compound concentration not given in the record
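Homogeneous AlphaScreen proximity assay pairing GST-Six1 with His-tagged Eya2 (added as 5X mix: 250 nM and 500 nM) in 50 mM Tris pH 8.0, 300 mM NaCl, 1 mM TCEP. Glutathione donor and nickel acceptor beads; 1 h, 37 °C, dark.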
D2 agonist – Beta-Arrestin HTS for Positive Allosteric Modulators of the Human D2 Dopamine Receptor: Agonists | DiscoveRx PathHunter D2 beta-arrestin, luminescence, 90 min; 100% = 57 uM dopamine signal | D(2) dopamine receptor (Homo sapiens), P14416 | activation, % (no concentration beside the values) | 0.084% of 360,000 active; in the data active = activation above about 40%; inconclusive = about 15% to 40%; inactive = below about 15%; note: compound concentration not given in the record; the text of the record calls up to 30% inactive
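DiscoveRx PathHunter D2 beta-arrestin cells (2,100/well) attached overnight, then compound-stimulated 90 min at 37 C in HBSS/10 mM HEPES/0.1% Tween-20 buffer; beta-galactosidase complementation read by luminescence after 1 h at ambient temperature. Dopamine 57 uM final (EC100) as control.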
PINK1 expr mod – A Quantitative High throughput Screen to Identify Chemical Modulators of PINK1 Expression. Potency, µM (doses to about 76.6 µM), without a hit: at the top dose activation (PINK1 increase), usual class: activators. 0.2% of 410,000 active. PINK1 immunofluorescence, high-content cytometry, 24 h; active = well fitted activation curve with a large enough effect; inconclusive = small, poorly fitted or top-dose-only effect; inactive = flat fitted curve, though single readings scatter; cell line not stated here;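 note: potency is the fitted concentration of half-maximal effect; % of control where 0% means no effect; nearly all actives have a fitted effect of over 65% in size; a mitochondrial uncoupler was the plate control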
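Measures PINK1 amount and localization on or inside mitochondria by immunofluorescence. Stable cells get compounds at 5 concentrations for 24 hours before fixation and staining; CCCP controls included.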
TRPML1 ag – qHTS for Agonists of the Human Mucolipin Transient Receptor Potential 1 (TRPML1). AID 624414, 2012. Mucolipin-1 (Homo sapiens), Q9GZU1. TRPML1-expressing cells, Ca2+ dye fluorescence, FDSS; host cell line not named in the record; reference of the full effect not given here. 0.12% of 410,000 active. activation, % (no concentration beside the values); in the data active = activation above about 50%; inconclusive = about 30% to 50%; inactive = below about 30%; note: 0% is about no effect; the text of the record puts the active cut at 80%
Target sequence (Q9GZU1 whole entry, looked up): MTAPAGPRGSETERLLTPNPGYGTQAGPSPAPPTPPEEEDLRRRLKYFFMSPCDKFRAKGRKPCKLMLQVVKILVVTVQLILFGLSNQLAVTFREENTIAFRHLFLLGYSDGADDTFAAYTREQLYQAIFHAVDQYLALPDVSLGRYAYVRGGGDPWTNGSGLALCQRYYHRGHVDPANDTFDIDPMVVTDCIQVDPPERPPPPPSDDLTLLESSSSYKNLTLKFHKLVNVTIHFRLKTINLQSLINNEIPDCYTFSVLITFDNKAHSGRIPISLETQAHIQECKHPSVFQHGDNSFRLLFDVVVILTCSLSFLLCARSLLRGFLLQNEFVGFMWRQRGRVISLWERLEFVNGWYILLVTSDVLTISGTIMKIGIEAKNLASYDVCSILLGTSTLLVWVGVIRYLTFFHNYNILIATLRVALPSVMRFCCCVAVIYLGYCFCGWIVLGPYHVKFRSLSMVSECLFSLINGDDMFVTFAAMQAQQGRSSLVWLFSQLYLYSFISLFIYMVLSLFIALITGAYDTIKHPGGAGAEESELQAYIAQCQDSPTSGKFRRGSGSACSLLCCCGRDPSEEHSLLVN
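Tet-induced TRPML1-DL cells, 1,500 per well, cultured overnight, were loaded with a no-wash Ca2+ dye for 45–90 min. Calcium fluorescence was recorded on the FDSS for 110 s after compound addition, before the EC80 agonist (4 uM 54-4) was added.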
TRPML1 inh – qHTS for Inhibitors of the Human Mucolipin Transient Receptor Potential 1 (TRPML1). activity change, negative = inhibition, % (concentration not given with the values). TRPML1-inducible cells, Ca2+ dye fluorescence, FDSS; hits give low values; inhibition of EC80 agonist-evoked calcium signal. Mucolipin-1 (Homo sapiens), Q9GZU1. 0.02% of 390,000 active; in the data active means activity change below about -50%; inconclusive means about -30% to -50%; inactive means above about -30%;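 note: stimulus is agonist 54-4 at its EC80 concentration; % is set by controls: 0 for no effect and ±100 for the full control effect; compound concentration not given in the record; the text of the record puts the active cut at -80%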
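Calcium fluorescence in TRPML1-DL cells induced overnight with Tet: a 110 s read after compound pin addition, then a 110 s antagonist read after challenge with 54-4 at 4 uM final (EC80).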
An asterisk follows results filed as active; u = inconclusive; x = no result given; & = joins results of further samples; [ ] = another dose, or the depositor's remark.

SMILES	D2 potentiator	Six1-Eya2 inh	D2 agonist	PINK1 expr mod	TRPML1 ag	TRPML1 inh
Cc1ccc(-c2cn(S(=O)(=O)c3ccc(C)cc3)nc2N)cc1	-1	2	-2.0	u	4.3	-5
Cc1cc(C)c(C#N)c(Oc2ccc(O)cc2)n1	2	-2	-2.1	2.8%	2.9	29
C=CCn1c(=NC(=O)c2cccs2)sc2cccc(OC)c21	-5	18	-0.9	-0.6%	-0.5	-8
Cc1ccc(Cc2c(C)nn(-c3nc(C)c(C(=O)N4CCCCC4C)s3)c2C)cc1 (stereo not given)	x	x	x	-1.1%	-0.5	-8
O=C(NCC1CC1)C1CCCN(S(=O)(=O)c2ccc(-n3cnnn3)cc2)C1 (stereo not given)	-7	2	0.6	0.9%	-0.2	-7
COc1ccc(C2NN=C(c3ccc(C)cc3)S2)cc1OC (stereo not given)	-8	4	-1.5	8.1%	-0.9	4
Cc1nnc(SC(C)C(=O)Nc2ccc(S(=O)(=O)NC3CCCCC3)cc2)s1 (stereo not given)	-3	1	-0.6	-1.1%[38.3 µM]	2.3	-14
Cc1oc2ncn(C)c(=O)c2c1C(=O)N(Cc1ccccc1)C(C)C	x	x	x	0.2%	-0.8	-13
COc1ccc(-c2noc(CC(=O)Nc3ccc(Br)cc3C)n2)cc1	x	x	x	0.6%	0.0	50
Cc1ccc(SCC(=O)Nc2ccccc2C(=O)N2CCOCC2)cc1	-11	-6	-2.0	2.0%	0.0	-1
CN1CCOc2cc(S(=O)(=O)Nc3ccc(F)cc3)ccc21	-10	-2	0.6	1.2%	0.9	-12
Cc1ccc(NC(=O)c2ccc(S(=O)(=O)N3CCOCC3)cc2)cc1	1	11	-3.0	1.1%	-0.8	10
COc1ccc(C(=O)Nc2ccc(S(=O)(=O)N3CCCCC3)cc2)cc1OC	3	-25	-3.3	2.4%	-0.5	3
COc1ccc(-c2csc(C3=C(O)CN(Cc4ccc(S(N)(=O)=O)cc4)C3=N)n2)cc1OC	-21	-17	-1.2	0.1%	-0.4	-3
Cc1sc2c(c1C)c(=O)n(-c1cccc(C(F)(F)F)c1)c(=O)n2Cc1ccccc1C#N	x	x	x	3.0%	2.2	-10
COc1ccc(/C=C/C(=O)C2CC2)cc1COc1c(C)cccc1C	0	5	4.2	10%	1.5	7
Cc1cc(Br)ccc1NC(=O)CNC(=O)CN(C)C1CCS(=O)(=O)C1 (stereo not given)	-1	3	-11	-0.4%	0.5	-9
C[C@@H]1CN([C@@H](C)CO)C(=O)CCCn2nncc2CO[C@@H]1CN(C)S(=O)(=O)c1ccc(Oc2ccccc2)nc1	6	6	-1.0	-0.2%	-0.3	-12
C#CCOCCOCCOCCNc1nc(N2CCN(C(=O)CCCCCCCCCCNC(=O)[C@@H](CCSC)n3cc(CCO)nn3)CC2)nc(N2CCN(C(=O)CCCCCCCCCCNC(=O)[C@H]([C@@H](C)CC)n3cc(CCCCCN)nn3)CC2)n1	0	-5	2.0	-2.2%	1.3	-15
CCOC(=O)c1ccccc1NC(=O)N1CCCN(S(=O)(=O)c2ccc3c(ccn3CC)c2)CC1	x	x	x	5.8%	1.9	-15
CN(C)S(=O)(=O)c1ccc(NC(=O)CNc2cc(S(=O)(=O)N3CCCC3)ccc2OCC(F)(F)F)cc1	16	-4	-2.8	6.6%	-0.4	-25
CCN(Cc1ccncc1)C(=O)c1cc(COc2ccc(F)cc2F)on1	-8	6	2.6	-0.2%	0.6	-23
CCOc1ccc2nc(NC(=O)c3cnccn3)sc2c1	-14	9	-1.2	0.3%	-0.1	-4
COc1ccccc1-c1cc(C(=O)N/N=C/c2ccoc2)c2ccccc2n1	-15	-12	-2.6	1.9%	-0.4	-5
Cc1ccc(-c2nn(C(C)(C)C)c3ncnc(N)c23)cc1	-31	-2	-2.1	-0.7%	-0.1	-1
CN1CCC(OC(=O)c2ccccc2Cl)CC1	-20	-3	7.4	-0.6%	-0.3	-4
COc1ccc(CCNC(=S)NC(=O)/C=C/c2ccc(C)cc2)cc1OC	16	-8	7.1	x	2.2	9
CC(C)c1ccc(NC(=S)N2CCCC(c3ccc(F)cc3)=N2)cc1	-37	-7	-5.4	3.5%	-0.1	38
CCCN(C(=O)CSCC(=O)Nc1ccc(OC)cc1)c1c(N)n(Cc2ccccc2)c(=O)[nH]c1=O	-10	9	-4.5	-2.5%	-0.1	1
CCCC(=O)Nc1nnc(SCC(=O)NCc2ccco2)s1	-9	3	-5.6	2.9%	0.2	-17
COc1ccccc1N1CCN(c2ncnc3n[nH]c(Br)c23)CC1	x	10	x	0.1%	-1.1	x
COc1cc(C)ccc1OCC(=O)OCC(=O)c1[nH]c(C)c(C(C)=O)c1C	-12	-10	-2.5	0.2%	1.5	30
Clc1ccc(OCCn2ccnc2)c(Cl)c1	-4	1	2.4	-4.0%[38.3 µM]	0.4	0
CCCOc1ccc(-c2csc(NC(=O)CN3C(=O)CCC3=O)n2)cc1	-4	2	-0.3	3.8%	0.5	-6
CC1=C(C#N)C(NC(=O)c2ccccc2Cl)(C(F)(F)F)C(=O)N1 (stereo not given)	-8	1	-5.2	-0.8%&0.8%	-0.2&1.2	-11&9
Cc1ncc(C[n+]2csc(C)c2C)c(N)n1	-3	0	5.4	1.4%	0.5	0
COc1cc(/C=N/n2cc(-c3ccccc3)[nH]c2=S)cc(OC)c1O	-10	-8	-2.7	1.8%	-0.6	-3
COc1ccccc1NC(=O)c1ccccc1SC	-1	4	-2.6	3.3%	-0.1	13
O=C(c1ccc2[nH]c(=O)c(=O)[nH]c2c1)N1CCN(Cc2ccccc2)CC1	-3	3	2.5	-0.4%	0.3	-5
Clc1cccc(-c2ccc(-c3nc4ccccn4c3NCc3ccccc3)cc2)c1	-3	-8	0.2	u	0.8	6

The final 7 entries of the part before are carried over, then new ones follow.
SMILES	D2 potentiator	Six1-Eya2 inh	D2 agonist	PINK1 expr mod	TRPML1 ag	TRPML1 inh
CCCOc1ccc(-c2csc(NC(=O)CN3C(=O)CCC3=O)n2)cc1	-4	2	-0.3	3.8%	0.5	-6
CC1=C(C#N)C(NC(=O)c2ccccc2Cl)(C(F)(F)F)C(=O)N1 (stereo not given)	-8	1	-5.2	-0.8%&0.8%	-0.2&1.2	-11&9
Cc1ncc(C[n+]2csc(C)c2C)c(N)n1	-3	0	5.4	1.4%	0.5	0
COc1cc(/C=N/n2cc(-c3ccccc3)[nH]c2=S)cc(OC)c1O	-10	-8	-2.7	1.8%	-0.6	-3
COc1ccccc1NC(=O)c1ccccc1SC	-1	4	-2.6	3.3%	-0.1	13
O=C(c1ccc2[nH]c(=O)c(=O)[nH]c2c1)N1CCN(Cc2ccccc2)CC1	-3	3	2.5	-0.4%	0.3	-5
Clc1cccc(-c2ccc(-c3nc4ccccn4c3NCc3ccccc3)cc2)c1	-3	-8	0.2	u	0.8	6
N#Cc1ccc(-c2csc(NNC(=O)c3ccc(Br)cc3)n2)cc1	27	-28	-2.6	21%	2.0	-25
COc1ccc(C2CC(c3ccccc3)=NN2C(=O)COC(=O)c2nc3nc(C)cc(C)n3n2)cc1 (stereo not given)	-6	-7	-1.8	-0.5%	-0.3	-3
Cc1cc(=O)[nH]c(SCC(=O)Nc2ccc(S(=O)(=O)N3CCOCC3)cc2)n1	-4	4	-4.2	0.0%	-0.7	1
CCOC(=O)Cc1csc(NC(=O)COc2c(C)cccc2C)n1	-5	1	-6.6	-2.3%	5.0	36
COc1ccc(OCc2nnc(SCC(=O)N3CCCC3)o2)cc1	2	8	2.4	3.6%	2.9	15
COc1ccc(C(=O)Nc2cc(C)ccc2NC(=O)COc2ccccc2)cc1	-6	-2	-2.7	18%	3.1	-7
Cc1cc(Nc2cccc(Cl)c2)nc(-c2ccccc2O)n1	-7	11	2.7	1.4%	-0.4	-8
O=C(NCCc1ccccc1)C1CC(c2ccccc2O)=NO1 (stereo not given)	-6	-3	-1.6	-3.9%[38.3 µM]	-0.2	28
CCCOc1ccccc1C1CC(=O)Nc2cc3c(cc21)OCCO3 (stereo not given)	-17	-26	-0.3	1.9%	-0.1	-5
CCCSc1ccc([C@H]2N[C@@](Cc3ccccc3)(C(=O)OC)[C@H]3C(=O)N(CC)C(=O)[C@@H]23)cc1	-8	-11	-1.4	3.6%	1.3	-9
Cc1ccccc1OCCCCn1c(C2CC(=O)N(c3ccccc3Cl)C2)nc2ccccc21 (stereo not given)	x	x	x	1.5%	0.3	5
CC(C)c1ccc(NC2CCCN(C(=O)c3ccnc(Cl)c3)C2)cc1 (stereo not given)	-3	-4	-0.7	0.7%	0.1	13
CC1CCc2sc(-c3n[nH]c(=S)o3)cc2C1 (stereo not given)	2	-3	3.0	-1.7%	3.2	7
CN1CCCC1CCNC1C2CC3CC(C2)CC1C3 (stereo not given)	-6	3	-1.5	-6.0%[38.3 µM]	0.8	-17
CCCCOC(=O)Nc1nnc(/C=C/c2ccc(OC)cc2)s1	1	17	8.3	6.9%	1.0	-2
CC(C)NC(=O)N(C)C[C@@H]1Oc2c(NC(=O)C3CCOCC3)cccc2C(=O)N([C@@H](C)CO)C[C@H]1C	-7	2	-0.7	2.2%	-0.3	1
COC(=O)c1sccc1NC(=O)CSc1nnnn1-c1ccccc1F	-21	0	-3.2	1.2%	-0.2	11
CC(C)(C)c1ccc(C2(C)NC(=O)NC2=O)cc1 (stereo not given)	-2	3	3.1	-1.4%	0.3	38
COc1ccc(NC(=O)c2cc3c(C)nn(-c4ccccc4)c3s2)c(OC)c1	x	x	x	-5.7%	0.7	8
CCOC(=O)c1sc(C)c(C(=O)NCC(C)(C)CN(C)C)c1N	-12	-1	-3.1	-0.4%	-0.8	13
Cc1ccc(C2C(N)C(=O)N2c2ccc(C)cc2)cc1 (stereo not given)	3	1	-1.8	-2.7%	0.9	-16
CCOc1cccc(CNCCSc2nnnn2C)c1	-10	-7	-6.2	-0.3%	-0.3	7
Cc1ccc(NCc2nnc(SCC(=O)NNC(=O)Cc3ccccc3)n2C)cc1	5	-1	-1.5	-0.9%	1.8	11
CCc1ccc2c(CN3CCc4ccccc43)cc(=O)oc2c1	4	-8	-0.4	-1.0%	0.0	28
